Screening results deposited in PubChem by several laboratories.
Dynein transport – blocks dynein driven cargo transport along microtubules | 3617.4 mouse cells, GR-EGFP nuclear translocation imaging; test concentration mostly 20 µM; stimulated with dexamethasone, 1 µM; stronger effect = lower value | z-score, hits read low | 220,000 compounds, 0.47% hits;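 active means plate z-score of nuclear minus cytoplasmic receptor signal below a set negative limit, without overly bright fluorescence or cell loss, cut at about -3.5 in these data, passing the limit was not always enough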;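 further: z-score of nuclear minus cytoplasmic ring GR-EGFP intensity difference per well; some compounds called inactive have numbers as strong as hits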
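Buffer or medium: tetracycline-free induction medium containing charcoal-stripped FBS / Reagent: dexamethasone agonist, 1.0 µM final, for 30 min / Technique: automated 10x imaging of fixed Hoechst-stained cells / Times: induction 48 h, compound 1 h, agonist 30 min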
Autophagy HCS – alters autophagy in cells. MEF GFP-LC3 puncta imaging; test concentration mostly 10 µM. calls only at 10 µM (by protocol). 190,000 compounds, 0.98% hits. AID 463193;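 active means percentage of spot-positive cells more than 3 SD above its plate mean, without a fluorescence outlier flag or 80% toxicity; inconclusive means no clear call, values can overlap the other calls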;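 further: spot-positive cell cutoff set from DMSO-treated cells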
Yfh1-depleted yeast – enhancers of respiration in Yfh1-depleted yeast, dose response, Friedreich's ataxia, plus single-dose screen (AID 1465); 220,000 compounds, 0.074% hits; fold induction at 50 µM; hits with a dose series show EC50 in µM; S. cerevisiae Yfh1-off respiration, WST-1 reduction, 72 h; higher fold induction means a stronger effect;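 active means fold induction of absorbance versus untreated yeast above a set limit, then at least 30% activation at any dose in follow-up; inconclusive means repeats straddling the limit, or above it without dose testing; inactive means fold induction below the set limit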;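 further: activators that raise dye reduction in frataxin-depleted yeast; strong numbers were not always called active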
Lipid droplet – modulators of hepatic lipid droplet formation; AML12 mouse hepatocytes, oleate lipid droplets, BODIPY imaging; inhibition, % at 6.5 µM; 240,000 compounds, 0.4% hits; AID 1656;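 active means lipid droplet intensity inhibited by at least 50%, with more than 500 cells counted; inconclusive means wells with under 300 cells, treated as cytotoxic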
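material = mouse AML12 hepatocyte cell line, fixed after treatment | also added = 100 µM oleic acid challenge | doses = compound at 6.5 µM only | schedule = overnight exposure | technique = Image-based BODIPY and DAPI two-channel analysis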
MT stabilizer – microtubule stabilizers in HeLa cells; % tubulin-high responders, % at 10 µM; HeLa tubulin immunostaining HCS, 24 h; share of cells brighter than vehicle mean+2SD; 200,000 compounds, 0.83% hits;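 active means plate Z-score above 3 for both tubulin-high and condensed-nucleus cell shares, with cell loss under 80%, at 10 µM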;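 further: anti alpha tubulin signal scored within the nucleus-defined area of each cell; some results filed as inactive read as strong as hits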
WT yeast gro inh – growth inhibition of WT yeast, mitochondrial fusion screen; mitochondrial fusion phenotypic screen, WT strain; AID 1362; inhibition, % at 10 µM; 190,000 compounds, 2.1% hits; in the data active means inhibition above about 58%; tested in S. cerevisiae
Ins promoter up – MIN6 insulin promoter up-regulation; MIN6 insulin promoter-GFP reporter, high-content imaging; stronger effect = higher value; AID 1625; 190,000 compounds, 0.3% hits; z-score at 5 µM;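 active means z-score above 3 at 5 µM with at least 500 cells counted in the well; inconclusive means wells under 500 cells, flagged as cytotoxic or low count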
WT yeast gro inh mutant strain – second read-out of WT yeast gro inh, no call of its own (marks repeat the call); inhibition, %; mitochondrial fusion phenotypic screen, mutant strain inhibition
Dynein transport cytoplasmic EGFP – recorded beside Dynein transport, whose call it bears; z-score; measured here: cytoplasmic GR-EGFP intensity; stronger effect = higher value
Dynein transport nuclear GR-EGFP – further read-out of Dynein transport, marked with its call; z-score; measured here: nuclear GR-EGFP intensity;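 lower value marks the stronger effect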
Dynein transport cell count – second read-out of Dynein transport, no call of its own (marks repeat the call); z-score; measured here: cell count per field
Ins promoter up cell count – recorded beside Ins promoter up, whose call it bears; cell count; measured here: cytotoxicity, nuclei count;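 total cells summed across four imaged fields per well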
Lipid droplet cells 6.5 µM – second read-out of Lipid droplet, no call of its own (marks repeat the call); cell count; measured here: cell count, cytotoxicity flag;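 cells counted across two imaged fields per well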
MT stabilizer Hoechst-high % – recorded beside MT stabilizer, whose call it bears; % Hoechst-high responders; measured here: nuclear condensation Hoechst responders;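 share of cells brighter than vehicle mean plus two SD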
MT stabilizer cytotoxicity % – second read-out of MT stabilizer, no call of its own (marks repeat the call); toxicity, %; measured here: cytotoxicity by cell density;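 0% = mean cell density of plate MIN control wells and 100% = no cells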
Autophagy HCS cell loss 18 h – second read-out of Autophagy HCS, no call of its own (marks repeat the call); toxicity, %; measured here: cell loss, nuclei count;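 cell loss after 18 h compound exposure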
* marks the source's active call; other numbers are inactive results; i = inactive; ? = inconclusive; nt = no result given. Not all compounds are listed; the hit share may differ from the screen's.

SMILES	Dynein transport	Dynein transport cytoplasmic EGFP	Dynein transport nuclear GR-EGFP	Dynein transport cell count	Autophagy HCS	Autophagy HCS cell loss 18 h	Yfh1-depleted yeast	Lipid droplet	MT stabilizer	MT stabilizer Hoechst-high %	MT stabilizer cytotoxicity %	WT yeast gro inh	WT yeast gro inh mutant strain	Ins promoter up	Ins promoter up cell count	others
CCc1nnc(NC=C2C(=O)OC(C)(C)OC2=O)s1	-0.55	-0.172	0.0465	-0.773	i	-11.8	i	nt	4.5	2.5	5.8	-11.4	7.7	0.34	1662
Cc1cccnc1NC(=S)NC(=O)c1cccs1	-0.451	-0.186	-0.36	0.327	i	-4.8	i	nt	1.3	3.1	10.2	-9.1	-0.2	0.34	1620
CC(c1ccc(F)cc1)n1c(-c2ccc3ccccc3n2)n[nH]c1=S (stereo not given)	-0.268	-0.0529	0.304	0.764	i	7.2	i	nt	3.2	1.7	9.0	-8.7	3.0	0.53	1471
O=C(O)c1c[nH]c2cc(C(F)(F)F)ccc2c1=O	-0.774	-0.235	-0.563	0.54	i	1.0	i	nt	3.7	2.2	10.3	2.8	-17.1	0.54	1480
COc1ccc2c(C)cc(SCC(=O)c3ccc4c(c3)OCO4)nc2c1	0.209	-0.2	-0.822	0.202	i	-0.5	i	nt	2.3	1.1	4.4	2.4	5.1	-0.16	800
CCc1ccc(NC(=O)CC2C(=O)Nc3c2c(=O)n(C)c(=O)n3C)cc1 (stereo not given)	0.29	-0.277	-0.758	-0.261	i	1.7	i	nt	2.2	1.5	2.8	-6.5	-11.2	-0.24	1624
COC(=O)CSc1nnc2n(C3CCCCC3)c(=O)c3c4c(sc3n12)CCCC4	-0.369	-0.217	0.045	0.334	i	-7.2	i	nt	3.4	1.7	6.2	30.9	25.8	-0.66	1685
Cc1ccc(C(=O)N2CCN(c3ncccn3)CC2)o1	-0.0073	-0.226	0.311	0.505	i	-0.7	i	nt	2.8	1.3	2.2	-0.2	2.9	-0.02	1490
O=C(Cn1c(SCC(=O)N2CCc3ccccc3C2)nc2ccccc21)NC1CCCC1	-0.153	-0.228	-0.57	-0.261	i	-3.5	i	nt	4.6	2.4	6.7	12.7	10.8	0.05	1593
Cc1ccc(C)n1CCN1CCN(CC(=O)Nc2ccc(S(N)(=O)=O)cc2)CC1	-0.131	-0.161	-0.074	0.293	i	-12.8	i	nt	2.5	2.6	4.6	-6.0	6.7	0.37	1668
O=S(Cc1ccccc1)CC(O)(c1ccccc1)c1ccccc1 (stereo not given)	-0.21	-0.153	-0.262	0.561	i	0.6	i	nt	2.5	1.2	6.8	4.8	-6.5	0.07	1444
CCCCn1ccnc1C(=O)c1ccc(S(=O)(=O)N(CCOC)CCOC)cc1	0.955	-0.0428	0.448	-0.635	i	5.3	nt	nt	1.3	1.4	12.5	1.0	3.3	-0.63	1503
C/C(=N/OC(=O)c1ccc(F)cc1)c1ccc(C)cc1	0.25	-0.183	0.127	-0.718	i	-3.2	i	nt	1.6	1.6	7.4	-7.3	-23.7	-0.18	1590
Cc1ccc(Oc2coc3cc(OC(=O)c4cccs4)ccc3c2=O)cc1	0.169	-0.136	-0.0619	-0.574	i	-4.6	i	nt	0.3	1.9	4.0	40.7	28.0	0.15	1562
Cc1cc(OC(C)C)nc(NCc2ccccc2)n1	0.739	-0.216	-0.265	-0.674	i	3.1	i	nt	5.3	2.0	1.9	31.2	47.4	0.22	1464
O=C(Oc1ccccc1)c1c(Cl)cccc1P(=O)(O)O	1.17	0.088	0.608	-0.664	i	-4.6	i	nt	5.0	3.7	12.9	-3.7	0.9	-0.03	1075
Cc1[nH][nH]c(=O)c1C(c1c(C)[nH][nH]c1=O)c1cn(Cc2cccc3ccccc23)c2ccccc12	-1.77	-0.191	-0.324	-0.011	i	-9.2	i	nt	22.6	10.9	34.2	48.7	12.4	1.11	1527
CC1CCC(=C(C#N)C(=O)Nc2cccc(Cl)c2)CC1 (stereo not given)	-0.716	-0.0337	-1.11	0.307	i	2.9	i	nt	3.4	2.3	5.8	-9.9	-18.9	0.52	1556
Cc1cccc(NC(=O)Cn2c(=O)n3nc(CCn4nc(C)cc4C)nc3c3ccccc32)c1	-0.112	-0.468	-0.0289	0.345	i	-74.4	i	nt	5.3	2.4	3.0	9.1	-2.0	1.04	1491
CC(C)(C)c1ccc(-c2c(C#N)c(N)nc3c2CCCC3)s1	-0.514	-0.164	-0.321	0.417	i	12.4	i	nt	1.7	1.0	5.6	-5.3	9.7	-0.63	1472
Cc1cnc(C(=O)OCC(=O)Nc2ccc(Cl)cc2)cn1	-1.39	-0.238	-0.423	0.579	i	4.1	nt	nt	4.3	3.7	3.7	35.6	11.9	-0.46	1629
CCOC(=O)Cn1nc(Cc2ccccc2)c2ccccc2c1=O	1.03	-0.26	-0.65	1.03	i	-9.9	i	nt	2.9	2.2	8.4	-10.3	-9.9	-0.27	1573
CC1=NN(c2ccc(C)cc2C)C(=O)C1C(c1ccccc1)C1C(=O)N(c2ccc(C)cc2C)N=C1C (stereo not given)	0.307	-0.162	-0.205	-0.174	i	22.5	i	nt	2.4	1.4	5.9	73.3*	-1.6*	0.97	1539
CCCCc1c(CCC)c(=N)c2ccccc2n1C	1.14	-0.108	-0.0433	-0.708	i	11.6	i	nt	3.2	2.1	4.1	-8.0	9.1	?	nt
CC(C)NC(=O)c1n[nH]c(=O)c2ccccc12	0.801	-0.331	0.471	0.0625	i	20.1	i	nt	4.0	4.1	6.1	-5.6	0.2	-0.09	1723
Nc1ccccc1Nc1ccccc1	-0.862	-0.0936	-0.434	0.0246	i	6.6	i	nt	1.3	1.6	0.2	18.1	18.4	-0.75	1179
Cc1ccc(OCCCN(C)C)c(Br)c1	0.67	-0.157	0.298	-0.745	i	6.5	i	nt	1.4	1.6	9.5	-0.5	-6.3	-0.41	1632
Cn1cnnc1SCC(=O)N1N=C2/C(=C/c3ccco3)CCCC2C1c1ccco1 (stereo not given)	-0.231	-0.248	-0.932	1.43	i	-7.6	i	nt	2.4	1.2	4.7	5.4	9.9	-0.44	1174
CCN(CC)c1nc(Nc2ccccc2)nc(Oc2ccc(C(=O)OC)cc2)n1	-1.12	-0.337	-0.344	0.541	i	4.2	i	nt	2.5	2.6	5.2	1.2	12.0	-1.02	1250
Cc1ccc(S(=O)(=O)N2CCC(CN3C(=O)c4cccc5cccc(c45)C3=O)CC2)cc1	0.215	-0.158	-0.0751	-0.0785	i	10.4	i	nt	1.6	1.1	3.4	21.4	0.8	-0.48	1410
O=C(Nc1cccc(OC(=O)c2ccco2)c1)c1ccco1	0.203	-0.0494	0.659	-1.36	i	-2.6	i	nt	4.3	2.4	8.7	6.6	-9.9	-0.54	1750
Cc1oc(-c2ccccc2)cc1C(=O)Nc1ccc2ccccc2c1	-0.202	0.721	0.386	0.892	i	2.3	i	nt	3.3	2.1	3.7	12.4	13.5	0.46	1297
CCC(C)C(NC(=O)OC(C)(C)C)C(=O)NCc1ccco1 (stereo not given)	-0.863	-0.173	-0.137	0.1	nt	nt	i	nt	2.4	1.6	4.3	6.9	11.4	-1.63	955
O=c1[nH]c(CSc2nnc(-c3ccccc3)n2C2CCCCC2)nc2ccccc12	-0.135	-0.155	0.445	0.264	i	6.1	i	nt	2.7	2.1	12.1	9.6	6.5	-0.34	1370
CC1CN/C(=C\C(=O)c2ccccc2)C(=O)N1 (stereo not given)	-0.202	-0.198	0.194	0.135	i	4.3	i	nt	2.1	2.0	2.1	9.6	2.0	-0.26	1626
CSc1ccccc1NC(=O)c1cc(CC(C)C)on1	-0.426	-0.231	0.102	0.418	i	20.7	i	-3.3	2.0	2.2	6.4	0.7	-3.3	0.15	1827	Lipid droplet cells 6.5 µM=593
Cc1ccc(C(=O)Nc2ccccc2-c2ccccc2)cc1S(=O)(=O)Nc1cccc(C)c1C	-0.605	0.471	0.457	0.0391	i	16.8	i	nt	2.4	1.0	7.9	37.5	28.1	-0.05	1625
Cn1c(CCN2CCCCC2)nc2cc(NS(=O)(=O)c3ccccc3)ccc21	-0.788	-0.188	-0.144	-0.0579	i	5.1	i	nt	3.9	2.3	7.1	1.8	-1.7	0.12	1233
CCCCOP(=O)(c1ccc(N(C)C)cc1)C(O)c1cccnc1 (stereo not given)	0.33	-0.175	1.1	-0.086	i	-36.0	i	nt	2.4	2.3	8.8	-23.1	-0.4	-0.52	1464
CN(C)c1ncc(S(=O)(=O)c2ccccc2)c(-c2ccc(Cl)cc2Cl)n1	-0.158	-0.13	-0.236	0.664	i	4.2	nt	nt	2.6	0.5	8.2	3.5	14.7	-0.63	1574
O=C(c1cccnc1)N1CCN(Cc2cccc(F)c2)CC1	-0.0465	0.845	0.455	0.0588	i	35.8	nt	16.4	1.5	1.7	10.7	5.4	0.2	0.36	947	Lipid droplet cells 6.5 µM=749
Cc1nnc(NCc2ccco2)s1	0.696	-0.236	-0.29	-0.00248	i	-0.7	i	nt	4.4	1.8	7.0	-2.5	19.6	-0.38	1547
O=C(Cc1ccc(Cl)cc1)N1CCN(C(=O)c2ccco2)CC1	-0.235	-0.197	-0.839	-0.199	i	-1.3	i	nt	3.1	1.1	6.3	0.7	7.2	0.28	1618
CCOCC(=O)Nc1cc(C(F)(F)F)ccc1Oc1cccc(Br)c1	1.44	-0.157	1.41	-1.32	i	15.7	i	nt	1.6	1.7	10.3	66.2*	19.6*	-0.35	1624
O=C(Cn1ncc2c1-c1ccccc1OC2)N1CCc2ccccc21	-0.49	-0.302	-0.216	0.61	nt	nt	i	13.5	4.3	2.7	6.3	0.0	-8.4	-0.15	1351	Lipid droplet cells 6.5 µM=691
CC1CCCN(C(C(=O)Nc2ccc3c(c2)OCCO3)c2ccccc2)C1 (stereo not given)	0.27	-0.262	0.431	-1.01	i	12.4	i	nt	4.3	3.6	6.1	8.5	3.6	0.22	1500
